# Mtb growth – Mycobacterium tuberculosis H37Rv growth inhibition, cell based, confirmatory dose response (AID 1949); most inactive calls were filed without a number and no value below 0 was filed; one-dose inhibition, % at 10 µg/mL; IC50 in µg/mL for titrated hits; actives 1.6% (n = 100,000);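 active means confirmed in a dose series; inconclusive means about 50% or more but not retested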;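 further: bacteria grown 7 days with compound before Alamar blue readout; 0% = untreated bacteria and 100% = reference antibiotic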
# Active calls of the source: *; i = inactive; ? = inconclusive. Some of the compounds tested; rates above refer to the full screens.
compound	Mtb growth
c1ccc(CCSc2nnc(-c3cccs3)n2-c2ccccc2)cc1	0.2%
O=S(=O)(N1CCOCC1)n1c(Cc2ccccc2)nc2ccccc21	i
COc1ccc(Cl)cc1NC(=S)NCc1ccc(S(N)(=O)=O)cc1	1.5%
CC(C)NS(=O)(=O)c1ccc(CCC(=O)N2CCCCCC2)cc1	i
O=C(NCc1ccco1)c1cc(C(=O)NCc2ccco2)cc(C(=O)NCc2ccco2)c1	i
O=S(=O)(NCc1ccco1)c1cccc(Cl)c1	0.1%
NC(=O)c1ccccc1NC(=O)CN(c1cc(Cl)cc(Cl)c1)S(=O)(=O)c1ccccc1	i
COc1ccc(C)cc1S(=O)(=O)Oc1cc(Cl)ccc1Cl	5.5%
FC(F)(F)c1nnc(N2CCCCC2)s1	i
COc1ccccc1NC(=S)N1CCN(Cc2ccccc2)CC1	i
CC(C)(C)C(=O)Nc1ccccc1C(=O)Nc1ccc(Br)cc1	i
Cc1ccccc1NC(=O)COc1ccc(C(C)C)cc1	9.9%
CCOc1ccc(NS(=O)(=O)c2cccc(F)c2)cc1	5.3%
Cc1ccc(S(=O)(=O)N2CCC(C(=O)Nc3ccc(I)cc3)CC2)cc1	i
Cc1sc2c(=O)n3c(nc2c1C(=O)NC1CCCCC1)CCCCC3	i
CCOC(=O)c1cnc2ccc(Br)cc2c1NCCCO	i
Cc1cccc(C(=O)Nc2cccc(-c3csc(C)n3)c2)c1	31.8%
Cc1ccc(C(=O)N2CCCCCC2)o1	i
CC(C)CNc1nc(=S)nc(N(C)C)[nH]1	40.2%
COc1cc2c(cc1NC(=O)c1ccccc1C)oc1ccccc12	i
CC(C)(C)c1ccc(C(=O)Nc2ccc(NC(=S)NC(=O)c3ccccc3)cc2)cc1	21.2%
CCOC(=O)C1=C(C)NC2=C(C(=O)CCC2)C1c1c(F)cccc1F (stereo not given)	5.1%
CCCCc1c(C)[nH]c2ccc(Br)cc2c1=O	i
Cc1ccccc1Nc1nc(NCc2ccco2)c2ccccc2n1	2.64µg/mL*
CCn1cc(Br)c(C(=O)N(C)Cc2ccccc2)n1	2.0%
CCNC(=O)Cc1cc2oc(C)c(Oc3ccc(F)cc3)c(=O)c2cc1CC	0.2%
CCc1ccc(C2=CC(=O)c3ccccc3C2=O)cc1	5.94µg/mL*
CCOCCCNC(=O)c1ccc(Br)cc1	1.9%
CS(=O)(=O)N(CC(=O)Nc1ccccc1C(F)(F)F)c1ccc(I)cc1	i
COc1ccc(N(CC(=O)NCCSc2ccc(Cl)cc2)S(C)(=O)=O)cc1Cl	i

# In the list so far, two have a thiophene ring, fused or not:
compound	Mtb growth
c1ccc(CCSc2nnc(-c3cccs3)n2-c2ccccc2)cc1	0.2%
Cc1sc2c(=O)n3c(nc2c1C(=O)NC1CCCCC1)CCCCC3	i

# Returning to the listing with the three entries that preceded the break.
compound	Mtb growth
CCOCCCNC(=O)c1ccc(Br)cc1	1.9%
CS(=O)(=O)N(CC(=O)Nc1ccccc1C(F)(F)F)c1ccc(I)cc1	i
COc1ccc(N(CC(=O)NCCSc2ccc(Cl)cc2)S(C)(=O)=O)cc1Cl	i
Cc1[nH]c2ccc(Br)cc2c(=O)c1CN1CCCCC1	i
COC(=O)c1cc(C)sc1NC(=S)NNC(=O)c1c(Cl)cnn1C	i
Cc1ccc(S(=O)(=O)NCCCNS(=O)(=O)c2ccc(Cl)cc2)cc1	i
CCCCc1nc2ccccc2c(=O)n1-c1ccc(OC)cc1	i
N#Cc1ccc(-c2cc(Cl)ccc2Cl)o1	i
CC(C)OCCCNC(=O)c1cccs1	i
CN(C)N1C(=O)C2C3C=CC(O3)C2C1=O (stereo not given)	0.3%
CC1CCCCN1S(=O)(=O)c1ccc(Oc2ccccc2)cc1 (stereo not given)	i
O=C(O)c1ccc(NC(=O)C2CCCCC2)cc1	i
Cn1c(CSCc2ccccc2)nnc1SCC(=O)c1ccc(Br)cc1	i
COc1cc(/C=C2\N=C(c3ccccc3Cl)OC2=O)ccc1OC(=O)c1ccccc1Cl	i
CC(C(=O)Nc1ccc(Br)c(Cl)c1)N1C(=O)C2C3CCC(C3)C2C1=O (stereo not given)	i
O=[N+]([O-])c1ccc(N2CCCCC2)cn1	i
CC(C)(C)c1ccc(S(=O)(=O)N2CCN(c3cccc(Cl)c3)CC2)cc1	i
CCN(CC)S(=O)(=O)c1ccc(NC(=O)COc2ccc(Br)cc2C)cc1	i
O=c1c2ccccc2[nH]c(=S)n1CC1COc2ccccc2O1 (stereo not given)	i
O=C(COc1ccc(Br)cc1)Nc1ccc2oc(=O)ccc2c1	i
O=C(NC(=S)NCc1cccnc1)c1cccc(I)c1	0.5%
CC(C)(C)c1ccc(OCC(=O)N2CCOCC2)c(Br)c1	1.5%
COc1ccc(NC(=O)c2ccccc2NC(=O)C(C)Oc2ccccc2)cc1 (stereo not given)	3.9%
O=C(NNC(=O)c1ccco1)Nc1cccc(C(F)(F)F)c1	i
O=C(O)c1cn(CCOc2ccccc2)c2ccccc12	i
CCC(=O)N1CCN(c2ccc(F)cc2[N+](=O)[O-])CC1	i
COc1ccc(Cl)cc1N(CC(=O)Nc1cccc(SC)c1)S(=O)(=O)c1ccccc1	i
COc1ccc(-c2c(C#N)c(SCC(=O)Nc3cccc(F)c3)nc3c2CCC3)cc1	i
CCOC(=O)C1CCCN(S(=O)(=O)c2cccc([N+](=O)[O-])c2)C1 (stereo not given)	i
Cn1c(SCC(=O)N2CCc3ccccc32)nnc1-c1ccccc1	i
CC1(C)C(=O)C2(CCCCC2)C(=O)OC1c1ccccc1 (stereo not given)	7.1%
Cc1ccc(NC(=O)CSCC(=O)Nc2ccccc2C)cc1	1.3%
Cc1ccccc1OCCn1c(CO)nc2ccccc21	i
Cc1ccc(C(=O)NCCCc2ccccc2)o1	i
CC(=O)N(CCC(Cc1ccccc1)c1ccc2c(c1)OCO2)Cc1ccccc1F (stereo not given)	5.5%
COC(=O)c1ccc(NC(=O)CCSc2ccccc2)cc1	0.6%
CC1CCCN(c2ncnc(N)c2[N+](=O)[O-])C1 (stereo not given)	i
COc1ccc(NC(=S)Nc2cc(C)[nH]n2)cc1Cl	?
Cc1cccc(NC(=O)C2CC(=O)N(c3cccc(Cl)c3C)C2)c1 (stereo not given)	6.5%
CC(C)(C)c1nc2scc(-c3ccc(Br)cc3)c2c(=O)o1	i
CCn1c(SCC(=O)NC2CCCCC2C)nnc1-c1ccc(C)cc1 (stereo not given)	i
CCc1cccc(C)c1NC(=O)CN(C1CCCCC1)S(=O)(=O)c1ccc(OC)c(OC)c1	i
CCc1cccc(CC)c1NS(C)(=O)=O	i
O=[N+]([O-])c1ccc(N2CCNCC2)nc1	i
Cc1nc2c(oc3nc(-c4ccco4)c4c(c32)CC(C)(C)OC4)c(-c2ccccc2)c1C(=O)O	i
Cc1ccc(SC(C)C(=O)Nc2ccc(Br)c(Cl)c2)cc1 (stereo not given)	i
O=C(Nc1ccc(C(=O)O)cc1)/C(=C\c1ccco1)NC(=O)c1ccco1	i
Cc1nc(SCC(=O)Nc2ccc(Oc3ccccc3)cc2)n[nH]1	43.2%
CN(c1ccc(C(=O)NCc2cccs2)cc1)S(=O)(=O)c1ccccc1	i
COc1ccc(OC)c(-c2nc(-c3ccccc3)c(-c3ccc([N+](=O)[O-])cc3)[nH]2)c1	5.9%
CC(=O)c1ccc(NC(=O)c2ccc(COc3c(F)c(F)cc(F)c3F)cc2)cc1	i
O=C(Nc1ccc(-c2nnc(-c3ccccc3)o2)cc1)C1CCCO1 (stereo not given)	i
O=c1c2ccccc2nc(CNCC2CCCO2)n1-c1ccc(F)cc1 (stereo not given)	i
COc1ccc(-c2csc(NC(=O)COc3ccc(Cl)c(Cl)c3)n2)cc1	1.6%
CCCC(=O)Nc1ccccc1NC(=O)c1ccc(OC)cc1	i
COc1ccc(NC(=O)CN(c2cccc(Cl)c2C)S(C)(=O)=O)cc1OC	i
COC(=O)C1=C(C)NC2=C(C(=O)CC(c3ccco3)C2)C1c1ccc(Cl)cc1 (stereo not given)	11.3%
Cc1ccc(OCC(=O)Nc2nc(-c3ccc(S(=O)(=O)N4CCOCC4)cc3)cs2)cc1C	i
CC(C)(C)c1ccc(C(=O)NC2(C(F)(F)F)NC(=O)N(Cc3ccco3)C2=O)cc1 (stereo not given)	i
COc1cc(Cl)cc2cc(C(=O)NNc3ccccc3)c(=O)oc12	?
c1ccc(-c2cc(-c3nn4c(-c5ccco5)nnc4s3)c3ccccc3n2)cc1	i
O=C(Nc1ccc(F)cc1F)C1CCN(C(=O)c2cccs2)CC1	i
O=C1CCCN1c1ccc(S(=O)(=O)NCCOc2ccccc2Cl)cc1	i

# The list continues.
compound	Mtb growth
CCC(=O)Oc1ccc2c(=O)c(Oc3cccc(OC)c3)c(C(F)(F)F)oc2c1	5.6%
Cc1cccc(OCCCC(=O)Nc2ccccc2Br)c1	i
Cc1ccc(C(=O)N2CCN(c3ccc(NC(=O)COc4ccc(Cl)c(C)c4)cc3)CC2)cc1	i
CCOc1ccc(-c2nc(C#N)c(NCc3ccc(C)cc3)o2)cc1	i
CCc1ccc(OC(C)c2n[nH]c(=S)n2C)cc1 (stereo not given)	i
Cc1ccc(NC(=O)CN(c2cccc(F)c2)S(C)(=O)=O)cc1Cl	7.4%
Cc1ccccc1C(=O)NC(=S)Nc1cccc(F)c1	9.6%
O=C1c2ccccc2C(=O)N1CCCCN(C(=O)c1ccccc1F)c1ccc(Cl)cc1	i
CCc1cc(=O)oc2c(OC(C)=O)c(OC(C)=O)ccc12	1.6%
CC(C)(C)C(=O)Oc1ccc(Br)cc1	0.1%
COc1ccccc1NC(=S)NC(=O)c1ccc(Br)o1	i
CCCc1cc(=O)oc2cc(OCC(=O)c3ccc(Cl)cc3)c(Cl)cc12	0.4%
COc1ccc(CCC(=O)Nc2cccc(C)c2C)cc1	i
CCOC(=O)C1CCN(C(=O)CN(Cc2ccc(Cl)cc2)S(=O)(=O)c2ccc(C)cc2)CC1	i
Nc1c(C(=O)Nc2cccc(C(F)(F)F)c2)sc2nc3c(cc12)C(=O)CCC3	i
COC(=O)CC1C(=O)NCCN1C(=O)OC(C)(C)C (stereo not given)	i
COC(=O)c1ccccc1NC(=O)CSc1n[nH]c(C)n1	i
COc1cc(OC)c(NC(=O)c2ccncc2)cc1Cl	i
COc1ccc(S(=O)(=O)N(CC(=O)Nc2cccc(Cl)c2)c2ccccc2)cc1	i
CCCOc1ccc(C(=O)CCNc2cccc(Cl)c2)cc1	i
COc1ccc(CN2C(=O)C(O)(CC(=O)c3cccnc3)c3ccccc32)cc1OC (stereo not given)	i
COC(=O)c1ccccc1NC(=O)c1ccc(N(C)S(=O)(=O)c2ccccc2)cc1	0.5%
COc1ccc(N2CCN(C(=S)NCc3ccc(C)cc3)CC2)cc1	i
CCCC(=O)Nc1nc2ccc([N+](=O)[O-])cc2s1	i
Cn1cc(Br)c(C(=O)Nc2sc3c(c2C(N)=O)CCC3)n1	i
Nc1cccc(-c2nnc(SCc3ccc(Cl)cc3)n2-c2ccccc2)c1	4.0%
CCOc1ccc(C(=O)Nc2cc(Cl)ccc2OC)cc1[N+](=O)[O-]	i
CCOc1ccc(C(=O)Nc2cc(OC)c(OC)cc2C(=O)OC)cc1OCC	48.0%
Cc1ccc(NC(=S)c2ccnc3ccccc23)cc1	i
O=c1c2ccccc2nc2n1CCCCN2	i

# 2 compounds drawn at random from those above, as already listed:
compound	Mtb growth
COc1cc(OC)c(NC(=O)c2ccncc2)cc1Cl	i
COc1ccc(CN2C(=O)C(O)(CC(=O)c3cccnc3)c3ccccc32)cc1OC (stereo not given)	i

# The listing continues:
compound	Mtb growth
COc1ccc(CCNc2nc(S(=O)(=O)c3ccc(C)cc3)c(Cl)s2)cc1OC	i
CCOC(=O)CSc1nnc(CSc2nc(N)c3c(C)c(C)sc3n2)n1-c1ccccc1	2.1%
COc1ccc(C(C)NC(=O)c2sc3ccccc3c2Cl)cc1OC (stereo not given)	i
O=[N+]([O-])c1ccc(S(=O)(=O)Nc2ccccn2)cc1	i
CCOc1ccc(C(=S)N2CCC(C)CC2)cc1OCC	i
CCCOCC1CC2(SC(=Nc3ccc(C)cc3)NC2=O)C(=O)O1 (stereo not given)	i
O=C1CC(SCCc2nc3ccccc3[nH]2)C(=O)N1c1ccc(F)c(Cl)c1 (stereo not given)	i
Cc1ccc(N(Cc2ccccc2)S(C)(=O)=O)cc1	i
C=CCNC(=O)c1ccc(N(C)S(=O)(=O)c2ccc(C)cc2)cc1	i
O=C1c2ccccc2CN1CCNS(=O)(=O)c1ccc2oc3ccccc3c2c1	i
COc1cc(C(=O)Nc2sc3c(c2C(N)=O)CCCC3)c(Br)c(OC)c1OC	33.0%
Cc1cc(-c2ccco2)c(C#N)c(SCC(=O)c2ccc(O)c(O)c2)n1	1.8%
CCSCC(=O)Nc1ccc(C)cc1	i
Cc1onc(-c2ccccc2Cl)c1C(=O)Nc1ccc(S(=O)(=O)Nc2nccs2)cc1	i
CCOc1ccccc1C(=O)N(CCC(=O)OC)c1ccccn1	i
CS(=O)(=O)N(CC(=O)O)c1cccc(C(F)(F)F)c1	i
Cn1c(SCC(=O)c2ccc(Cl)cc2)nc2sc3c(c2c1=O)CCCC3	i
Cc1ccc(C(=O)Nc2nc3ccc(Cl)cc3s2)o1	0.6%
CCOC(=O)C1=CN(Cc2ccc(OC)cc2)C=C(C(=O)OCC)C1c1cccc(O)c1	i
Cc1cc(C)cc(OCC(=O)Nc2ccc(N3CCN(Cc4ccccc4F)CC3)cc2)c1	i
Cn1cnnc1SCC(=O)NC1=NN=C(c2ccccc2)CS1	i

# Screening data as filed in PubChem.
